# Bst PK mod: Pyruvate Kinase; partly purified Bacillus stearothermophilus pyruvate kinase, luminescence ATP production; ribose 5-phosphate activator present at AC10; Potency, µM; actives 1.2% (n = 51,000); in the data active means potency below about 11 µM; inconclusive means mostly about 12 µM to 25 µM; inactive means weaker than that;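 the screen sought inhibitors and activators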;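 note: potency is the fitted concentration of half-maximal effect; scaled between full activation by ribose 5 phosphate and full inhibition by luteolin; about four in five hits inhibit and the cells do not say which; series up to 57 µM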
# YjeE inh: qHTS Assay for Inhibitors of YjeE; tRNA threonylcarbamoyladenosine biosynthesis protein TsaE (Escherichia coli (strain …; purified YjeE, fluorescence polarisation of a bound ADP probe; Potency, µM; actives 0.05% (n = 71,000); AID 605, 2007; active = well fitted falling curve; inconclusive = weaker or top-dose-only fall, or a rising curve; inactive = flat or poorly fitted curve;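 note: top concentration of the series not given in the record; excess ADP was the control for the full effect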
#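 Purified YjeE (10 uM) with BODIPY Texas Red-labeled ADP probe (2 uM); compounds pin-transferred, 15 min at room temperature. Binding inhibition read as decreased fluorescence polarization; ADP titration as control.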
# The depositor's hits bear a star; i = inactive; ? = inconclusive; nt = not tested or not shown. The list is partial (hit frequency here may not be typical).
SMILES,Bst PK mod,YjeE inh
Clc1ccccc1CSc1nnc(-c2ccco2)c(-c2ccco2)n1,>25.6,nt
COc1cc(NC(=O)C(C)Oc2ccccc2)c(C(=O)O)cc1OC (centres undefined),>57,i
O=S(=O)(NCc1ccccn1)c1cccc2nsnc12,>57,i
O=C(Cn1cnc2ccccc2c1=O)NCC(=O)N1CCN(Cc2ccc3c(c2)OCO3)CC1,>57,i
CCOC(=O)c1ccc(Oc2cc(C)nc(SC)n2)cc1,nt,i
Nc1c(C(=O)Nc2ccccc2)sc2nc(-c3ccco3)ccc12,nt,i
CCn1cc(C(=O)NCc2ccccc2OC)c(=O)c2cc(S(=O)(=O)N(C)C)ccc21,nt,i
C=CCN1CCN(C(c2ccc(Cl)cc2)c2nnnn2CCc2ccc(OC)c(OC)c2)CC1 (centres undefined),>57,i
CCOC(=O)C1CCN(C(=O)Nc2ccc3c(c2)nc(C)n3C)CC1,>57,i
O=C(Cn1c(=O)oc2cc(S(=O)(=O)N3CCOCC3)ccc21)N1CCc2ccccc2C1,nt,i
O=C(Nc1ccccc1N1CCN(C(=O)c2ccccc2)CC1)c1cc2ccccc2o1,>57,i
CCN(CC)C(=O)c1csc(Nc2ccc(C)cc2)n1,>57,i
C=CCN=c1sc(C(=O)OC)cc(=O)n1CC=C,>57,i
Cc1[nH]c(=O)[nH]c(=O)c1S(=O)(=O)N1CCC(C(=O)N2CCN(Cc3ccccc3)CC2)CC1,>57,i
COc1ccc(CCNC(=O)c2nnc(Cc3c(F)cccc3Cl)o2)cc1OC,?,i
CCCn1c(-c2ccc(F)cc2)nc2c(NCCCCN(C)C)nc(C)nc21,nt,i
O=C(c1cnccn1)N1CCC2(CC1)CN(c1ncccn1)C2,nt,i
O=C1Nc2ccccc2C12OCCCO2,>57,i
CCOC(=O)/C(C(N)=NC(C)C)=C(\O)c1ccccc1,>57,i
Cc1cc(C)cc(N(C(=O)CNC(=O)c2ccco2)C(C(=O)NC2CCCC2)c2cccnc2)c1 (centres undefined),>57,i
O=c1cnc2cnc(Oc3cccc(Cl)c3)nc2n1Cc1ccc(F)cc1,nt,i
COc1cc2c(cc1OC)CN(C(=O)CC1CC3CCC1C3)CC2 (centres undefined),i,i
Cc1nc(Nc2ncc3c(n2)CC(C)(C)CC3=O)nc2ccccc12,>25.6,nt
O=C(Nc1cccc2c1CCCC2)C1CCCN(S(=O)(=O)c2cccc3nonc23)C1 (centres undefined),>57,i
COC(=O)N1CCN(c2ccc(C(C)=O)cc2)CC1,>57,i
N#CCCS(=O)(=O)c1nnnn1-c1ccccc1,>57,i
Cc1ccc(Nc2nc(N)nc(CSc3nccn3C)n2)c(C)c1,>57,i
CCOc1ccc(NC(=O)C2CC(=O)N(CC)C(=Nc3ccc4c(c3)OCO4)S2)cc1 (centres undefined),>57,i
CCOC(=O)c1ccccc1NC(=O)COC,>57,i
CCC(=O)c1cc(F)c(N2CCN(S(=O)(=O)c3ccccc3)CC2)cc1C,nt,i
C#CC(CO)N(CCN(Cc1ccccc1)C(C#C)CO)Cc1ccccc1 (centres undefined),nt,i
CSCCC(NC(N)=O)C(=O)NCC1CCCCC1 (centres undefined),>57,i
COCC(C)n1c(SCc2ccc(C(=O)OC)o2)nc2ccccc2c1=O (centres undefined),>57,i
Cc1nc(C)n(CC(O)COc2ccc3cc(Br)ccc3c2)n1 (centres undefined),nt,i
CCC(C(=O)Nc1nccs1)(C(F)(F)F)C(F)(F)F,>25.6,nt
O=C(c1cccs1)N1CCCC(c2ccccc2)C1 (centres undefined),>57,i
O=C(O)CC(NC(=O)c1ccccc1NC(=O)c1ccccc1)C(=O)O (centres undefined),nt,i
O=C(Nc1ccon1)c1cccc(S(=O)(=O)N2CCCC2)c1,>57,i
COCCn1c(SCC(=O)Nc2ccccc2)nc2c1c(=O)[nH]c(=O)n2C,nt,i
CCOC(=O)N1CCN(S(=O)(=O)c2cc(C)c(C)cc2C)CC1,>57,i
NC(=O)CSc1oc(-c2ccc(F)cc2)nc1S(=O)(=O)c1ccccc1,>57,i
COCCCN1C(=O)C(=O)/C(=C(/O)c2ccc(OC(C)C)cc2)C1c1ccncc1 (centres undefined),>57,i
O=C(O)c1ccc(O)cc1O,nt,i
Cc1cccc(C)c1NC(=O)N1CCC(c2nc3ccccc3o2)CC1,>57,i
CCOc1ccc(C2C(C#N)=C(N)SC(N)=C2C#N)cc1OC,>25.6,nt
Cc1cc2nc(N)sc2cc1C,nt,i
O=S(=O)(c1ccc(Oc2ccc3oc4ccccc4c3c2)nc1)N1CCCC1,>57,i
CN1CCN(C2=C(Cl)C(=O)N(c3ccc(Cl)cc3)C2=O)CC1,>57,i

# Three compounds picked at random from those above, as already listed:
SMILES,Bst PK mod,YjeE inh
Cc1cc2nc(N)sc2cc1C,nt,i
O=C(O)CC(NC(=O)c1ccccc1NC(=O)c1ccccc1)C(=O)O (centres undefined),nt,i
CCOc1ccc(C2C(C#N)=C(N)SC(N)=C2C#N)cc1OC,>25.6,nt

# Continuation:
SMILES,Bst PK mod,YjeE inh
Cc1nc2ccc3nc(NC(=O)c4ccco4)sc3c2s1,nt,i
CCOC(=O)N1CCN(c2c(NCCc3ccc(OC)c(OC)c3)c(=O)c2=O)CC1,nt,i
CCC1CCCCN1CCNC(=O)C1CCN(S(=O)(=O)c2c(C)noc2C)CC1 (centres undefined),>57,i
Cc1nnc(NC(=O)CCC(=O)NCc2ccco2)s1,>57,i
COc1cc(C(=O)n2nc(C)cc2C)cc(OC)c1OC,nt,i
Cc1cc(C(F)F)n2ncc(C(=O)NCc3ccccc3)c2n1,>57,i
Cn1c(SCC(=O)NC2CC2)nnc1-c1ccco1,>57,i
COc1ccc(OC)c(C2NC(=O)NC(C)=C2C(=O)Nc2ccc(C)cc2)c1 (centres undefined),nt,i
Cc1noc(C)c1S(=O)(=O)N1CCCC(C(=O)NCCc2ccccc2)C1 (centres undefined),>57,i
O=C(NCC(=O)N(CCN1CCOCC1)C(C(=O)NC1CCCC1)c1cccs1)c1ccco1 (centres undefined),>57,i
N#Cc1ccc(CN2CCCC3(CCN(C(=O)c4csnn4)CC3)C2)cc1,nt,i
O=C(NCc1cccs1)c1ccc(N2CCCCC2)nc1,>57,i
O=C(CSc1ccc(Cl)cc1)Nn1cnnc1,>11.4,i
CC(=O)OC[C@@H]1O[C@@H](Oc2cc(OC(C)=O)c3c(=O)cc(-c4ccc(OC(C)=O)c(OC(C)=O)c4)oc3c2)[C@H](OC(C)=O)[C@H](OC(C)=O)[C@@H]1OC(C)=O,nt,i
Cn1c(CN2CCCCC2)nc2cc(NS(=O)(=O)c3ccc(Cl)cc3)ccc21,nt,i
Cc1ccc(-c2csc(=S)n2CC(=O)OCC(=O)NCc2ccco2)cc1,>57,i
CCN(CC)CCCN1C(=O)C(=O)/C(=C(/O)c2ccc(OC)cc2)C1c1ccco1 (centres undefined),>25.6,nt
CCOC(C)OCC,nt,i
CCn1c(C(Cc2ccccc2)NC(=O)COC)nc2ccccc21 (centres undefined),nt,i
Cc1cccc(Nc2ccccc2)c1,>57,i
Cc1ccc(S(=O)(=O)NC(=O)N2CCC(C)CC2)cc1,>57,i
CCOC(=O)C(CCC#N)(CCC#N)C(=O)OCC,nt,i
c1csc(C(c2nnnn2C2CCCC2)N2CCOCC2)c1 (centres undefined),>57,i
COc1ccc(CCNc2ncnc3[nH]ncc23)cc1OC,>57,i

# Next section, starting with the last two of the part before.
SMILES,Bst PK mod,YjeE inh
c1csc(C(c2nnnn2C2CCCC2)N2CCOCC2)c1 (centres undefined),>57,i
COc1ccc(CCNc2ncnc3[nH]ncc23)cc1OC,>57,i
COc1ccc(-n2c(SCC#N)nnc2-c2cccnc2)cc1,>57,i
CCCN(CCC)CCNc1c(N2CCN(C(=O)OCC)CC2)c(=O)c1=O,>57,i
COCCCNC(=O)CC(NS(=O)(=O)c1ccc(OC)cc1)c1ccc(OC)cc1 (centres undefined),>57,i
COc1cc(OC)cc(C(=O)NC2CC3CCC(C2)N3Cc2ccco2)c1 (centres undefined),>57,i
COc1ccc(CN2CC(C(=O)NCCCOC(C)C)CC2=O)cc1 (centres undefined),>57,i
CCOC(=O)N1CCC(N2C(=O)c3ccc(C(=O)NCc4ccco4)cc3C2=O)CC1,nt,i
CC(=O)Nc1cnn(Cc2ccc(Br)cc2)c1,>57,i
CCOC(=O)CSc1nc2c(c(=O)[nH]c(=O)n2C)n1C/C=C(/C)Cl,>57,i
CCNc1nc(NCC)nc(OCCOC(=O)c2ccccc2)n1,nt,i
COc1ccc(OC)c(NC(=O)CSC2=C(C#N)C(c3ccco3)C3=C(CCCC3=O)N2)c1 (centres undefined),>25.6,nt
CCCCn1nnc(NC(=O)c2ccco2)n1,>57,i
CCc1cc2c(=O)c(-c3nc4ccccc4[nH]3)coc2cc1OC(=O)N1CCOCC1,>25.6,nt
Fc1ccc(OCc2nn3cnnc3s2)cc1,>57,i
O=C(CC12CC3CC(CC(C3)C1)C2)N1CCOCC1,nt,i
O=C(NCc1ccco1)c1ccc(OCC2CCCO2)cc1 (centres undefined),>57,i
O=C(Nc1ccc2oc(-c3cccnc3)nc2c1)c1cccnc1,>57,i
COc1ccc(Oc2ncc3nc(-c4cccs4)c(=O)n(CCC#N)c3n2)cc1,nt,i
CCn1c(SCc2nc3ccccc3s2)nc2cc(S(=O)(=O)N3CCOCC3)ccc21,>57,?
COc1ccc(OC)c([C@H](O)CNC(=O)CN)c1,nt,i
Cc1ccccc1C(=O)Nc1ccc(Br)cn1,nt,i
Cc1ccc2c(c1)cc(CN(CCc1ccccc1)C(=O)N1CCOCC1)c1nnnn12,>57,i
Cc1ccc(C)c(N2CCN(C(=O)c3ccc(CS(=O)(=O)c4ccccc4C)o3)CC2)c1,>57,i
COc1ccc(-c2cc(C(=O)NCc3cccs3)no2)cc1OC,nt,i
CCOc1ccc(-c2nc(-c3ccc(OC)c(OC)c3)no2)cc1OCC,>57,i
O=C(CN(C(=O)Cn1nnc(-c2cccs2)n1)c1ccc2c(c1)OCCO2)NC1CCCCC1,>57,i
Cc1csc(SCC(=O)c2cc(C)n(Cc3cccs3)c2C)n1,3.16*,i
Cn1c(C(=O)NC2CCCCC2)cc2sccc21,>57,i
COc1c2ccoc2nc2c(OC)c(OC[C@H](O)C(C)(C)O)ccc12,nt,i
COc1ccc2cc3[n+](cc2c1OC)CCc1cc2c(cc1-3)OCO2,nt,i
Cc1cc2occ(CC(=O)NC3=NCCS3)c2cc1C(C)C,>57,i
COC(=O)c1cc(Br)ccc1-c1ccc(/C=N/n2nnnc2N)o1,nt,i
c1ccc(NCCSc2nc3ccccc3s2)cc1,nt,i
CCOc1ccccc1N(CC)C(=O)Cn1ncc2c(=O)oc3ccccc3c21,nt,i
CCn1cc(NC(=O)Nc2ccc(OC)c(OC)c2)c(C(N)=O)n1,nt,i
Cc1ccc(C(=O)CSc2nnc(Cn3nnc4ccccc43)n2C)cc1,>57,i
CCN=C1SC(C(=O)NCCc2ccccc2)CC(=O)N1CC (centres undefined),>57,i
O=C(Cc1ccccc1)Nc1nc(-c2cccs2)cs1,nt,i
COC(=O)c1ccccc1NC(=O)CSc1nc(O)cc(=O)n1C1CCCC1,>57,i
Cc1cccc(/N=C/c2c(O)n(-c3cc(Cl)ccc3N3CCOCC3)c(=O)c3ccccc23)n1,>57,i
COCCN(C(=O)CCCC(=O)Nc1ccccn1)C(C(=O)NC1CCCCC1)c1ccc(C)cc1 (centres undefined),>57,i
Cc1cccc(-c2cc3nc4c(c(N5CCCC(O)C5)n3n2)CCC4)c1 (centres undefined),nt,i
CCOc1ccccc1N(CC(=O)NC1CCCCC1)S(C)(=O)=O,nt,i
Cc1ccc2c(c1)c1ncnc(N3CCC4(CC3)OCCO4)c1n2C,i,i
O=C(CCn1nnc2ccccc2c1=O)N[C@H](C(=O)O)c1ccccc1,>57,i
N#Cc1nc(COc2ccccc2Cl)oc1NCc1ccc(F)cc1,>25.6,nt
COc1ccc(-c2cc(C(F)(F)F)nc(SCC(=O)Nc3cc(C)on3)n2)cc1,>57,i
O=C(c1cccc(F)c1)N1CCN(S(=O)(=O)c2ccccc2)CC1,nt,i
O=C(CCN1CCCCC1)Nn1c(=S)[nH]c2ccccc2c1=O,>57,i

# Molecules shown so far that have a CF3 group (2):
SMILES,Bst PK mod,YjeE inh
CCC(C(=O)Nc1nccs1)(C(F)(F)F)C(F)(F)F,>25.6,nt
COc1ccc(-c2cc(C(F)(F)F)nc(SCC(=O)Nc3cc(C)on3)n2)cc1,>57,i

# Next section:
SMILES,Bst PK mod,YjeE inh
O=C(NCCSc1ccccc1)c1cccnc1,nt,i
O=C(Nc1nccs1)c1cc2sccc2n1Cc1ccc(F)cc1,>57,i
CC(=O)N1CCN(c2ccc(Nc3ncnc4c3oc3ccccc34)cc2)CC1,i,i
O=C(CCc1ccccc1)Nc1ccc(Cl)cn1,>57,i
N#Cc1ccc(NC(=O)Nc2ccc(Cl)cc2)cc1,nt,i
Cc1cc2nc(-c3ccc(SCC(=O)N4CCN(C(=O)c5ccco5)CC4)nc3)[nH]c2cc1C,0.79*,i
CC(=O)c1cccc(NC(=O)C2CCN(S(=O)(=O)c3ccc(C)cc3)CC2)c1,i,i
O=C(C1CCCN1S(=O)(=O)c1cccc2cccnc12)N1CCn2c1nc1ccccc12 (centres undefined),nt,i

# Compound profiles, as listed above.
# `CC(=O)c1cccc(NC(=O)C2CCN(S(=O)(=O)c3ccc(C)cc3)CC2)c1` across the screens: Bst PK mod: i; YjeE inh: i
# `O=C(C1CCCN1S(=O)(=O)c1cccc2cccnc12)N1CCn2c1nc1ccccc12` (centres undefined) across the screens: Bst PK mod: nt; YjeE inh: i
